TRPML1 blocker: human mucolipin-1 channel inhibition; Q9GZU1; TRPML1-inducible cells, Ca2+ dye fluorescence, FDSS; stronger effect = lower value; inhibition of EC80 agonist-evoked calcium signal; activity change, negative = inhibition, % (no concentration beside the values); 390,000 tested, 0.02% active; in the data active means activity change below about -50%; inconclusive means about -30% to -50%; inactive means above about -30%;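 note: stimulus is agonist 54-4 at its EC80 concentration; % is set by controls: 0 for no effect and ±100 for the full control effect; compound concentration not given in the record; the text of the record puts the active cut at -80%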
Target sequence (Q9GZU1 whole entry, looked up): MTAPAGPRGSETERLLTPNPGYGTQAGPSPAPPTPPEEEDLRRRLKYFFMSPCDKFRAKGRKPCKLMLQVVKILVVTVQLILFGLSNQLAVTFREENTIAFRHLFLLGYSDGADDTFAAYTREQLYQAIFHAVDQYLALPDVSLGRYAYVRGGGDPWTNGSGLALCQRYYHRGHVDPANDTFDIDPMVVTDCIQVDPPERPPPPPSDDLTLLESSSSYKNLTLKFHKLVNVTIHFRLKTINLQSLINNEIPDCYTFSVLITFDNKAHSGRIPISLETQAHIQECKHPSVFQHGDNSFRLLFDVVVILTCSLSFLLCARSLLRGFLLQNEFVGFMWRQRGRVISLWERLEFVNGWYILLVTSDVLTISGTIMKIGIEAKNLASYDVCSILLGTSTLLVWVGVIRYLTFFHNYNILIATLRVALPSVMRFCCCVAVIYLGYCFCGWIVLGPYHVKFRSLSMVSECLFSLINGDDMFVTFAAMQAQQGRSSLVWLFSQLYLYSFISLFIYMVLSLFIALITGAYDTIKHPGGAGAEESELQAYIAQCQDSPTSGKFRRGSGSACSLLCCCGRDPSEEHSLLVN
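Tet-induced TRPML1-DL cells loaded with Ca8 no-wash calcium dye were read kinetically on FDSS. Compound addition was followed by EC80 agonist 54-4 (4 uM final); inhibition was read over 110 s.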
Menin MLL FP FL: inhibitors of human menin-MLL interaction, wild-type MLL peptide | 290,000 tested, under 10 active | AID 1766 | Fluorescence polarization, fluorescein-MLL peptide displacement from menin | FP activity change, % at 61.4 µM; inconclusive = falling polarisation curve, or a change in total fluorescence; inactive = total fluorescence flat and polarisation flat or rising; no compound was filed as active; the % refers to the polarisation; negative = inhibition;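 note: % of control where 0% means no effect; inhibitors lower the polarisation; unlabelled MLL peptide was the positive control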
gsp antagonist: antagonists of gsp mutant (McCune-Albright syndrome); 340,000 tested, 0.4% active; AID 624288; Potency, µM (top dose mostly 76.9 µM), without a hit: top-dose activity change, negative = inhibition, most hits filed as inhibitors; gsp-mutant cells, cAMP HTRF, 30 min; control for the full effect not named in the record; active = falling curve of any shape with a large fitted effect; inconclusive = falling curve, mostly with a smaller effect; inactive = flat or rising curve; cell line not stated here;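 note: intracellular cAMP measured with PDE inhibitor Ro 20-1724 present during compound exposure; potency is the fitted concentration of half-maximal effect; % is set by controls: 0 for no effect and ±100 for the full control effect; nearly all actives have a fitted effect of over 65% in size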
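Measurement of cellular cAMP by homogeneous time-resolved fluorescence following a 30 min compound exposure at 37C. The PDE inhibitor […] was present throughout; the assay buffer was DPBS with 0.05% BSA and 0.005% Tween 20.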
TRPML1 agonist: activates the human TRPML1 channel; Q9GZU1; TRPML1-expressing cells, Ca2+ dye fluorescence, FDSS; host cell line not named in the record; reference of the full effect not given here; activation, % (no concentration beside the values); 410,000 tested, 0.12% active; in the data active = activation above about 50%; inconclusive = about 30% to 50%; inactive = below about 30%; note: 0% is about no effect; the text of the record puts the active cut at 80%
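Cells: TRPML1-DL, 1X Tet inducer, ~16 h at 37 degrees C/5% CO2. Dye: ABD Ca8 no-wash + quencher, 45-90 min RT. Read: 10 s baseline, compound add, 110 s agonist phase; 54-4 EC80 (4uM final), 110 s antagonist phase.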
ClpP mod: qHTS Assay for Activators of ClpP; ATP-dependent Clp protease proteolytic subunit (Bacillus subtilis (strain 168)), P80244; 340,000 tested, 1.9% active; purified B. subtilis ClpP, FRET peptide cleavage, 20 min; AID 651965, 2013; Potency, µM (titrated, usually from 57.5 µM), without a hit: top-dose activity change, negative = active; active = well fitted falling curve with a large enough effect; inconclusive = small, poorly fitted or top-dose-only effect; inactive = no such curve, though single readings can be large or run the other way; note: potency is the fitted concentration of half-maximal effect; the source files actives as falling curves though it sought activators and does not explain the sign; nearly all actives have a fitted effect of over 65% in size; many hits overshoot -100%
Target sequence (P80244 whole entry, looked up): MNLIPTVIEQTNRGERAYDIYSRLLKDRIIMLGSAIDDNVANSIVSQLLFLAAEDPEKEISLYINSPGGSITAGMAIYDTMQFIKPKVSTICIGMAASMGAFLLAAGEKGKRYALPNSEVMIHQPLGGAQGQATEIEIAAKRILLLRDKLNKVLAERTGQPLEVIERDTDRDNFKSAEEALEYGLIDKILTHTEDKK
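Purified B. subtilis ClpP, 10 microg/mL final in Tris/HCl pH8 with KCl, BSA, glycerol and Tween-20, cleaved an Abz/nitrotyrosine-quenched decapeptide. Fluorescence (ex 320, em 430) was read at 0 and 20 min at room temperature. Delta was normalized to 5.8 microM ADEP and DMSO/no-enzyme controls.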
gsp agonist: gsp mutant agonism; gsp mutant cells, cAMP HTRF, 30 min; control for the full effect not named in the record; Potency, µM (top dose mostly 76.9 µM), for the others: at the highest dose activation (cAMP increase), actives largely listed as activators; 340,000 tested, 0.13% active; active = well fitted activation curve with a large enough effect; inconclusive = small, poorly fitted or top-dose-only effect, or another doubt; inactive = no such curve, though single readings can be large or run the other way; cell line not stated here;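 note: phosphodiesterase inhibitor Ro 20-1724 added with compounds to block cAMP breakdown; potency is the fitted concentration of half-maximal effect; nearly all actives have a fitted effect of over 60% in size; about a fifth of the inactives were tested at one dose only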
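Cells stably selected in G418 were plated at 2000/well, grown 16-24 hr, then given compounds in DMSO with the PDE inhibitor […] (300 uM solution added) for 30 min at 37C; cAMP was read by HTRF.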
* marks the source's active call; other numbers are inactive results; ? = inconclusive; / = no result given; [ ] = remark or other dose.

SMILES	TRPML1 blocker	Menin MLL FP FL	gsp antagonist	TRPML1 agonist	ClpP mod	gsp agonist
CN(C(=O)c1ccc(NC(=O)Cc2ccc(NC(=O)C3CCCN(C(=O)C4CC4)C3)cc2)cc1)C1CC1 (configuration not stated)	-1.1	/	8.1%	0.2	0.9%	/
O=C1CC(=C(c2ccccc2)c2ccccc2)C(=O)N1CCCN1CCN(c2cccc(Cl)c2)CC1	-8.2	9.2	-3.7%	-0.6	0.3%	0.4%
COc1ccc(C2=NS(=O)(=O)N(C)C(C(=O)NCc3ccco3)=C2)cc1OC	-4.5	-0.2	-1.6%	-0.4	0.6%	-25.3%
CC(=O)c1cnc2ncnn2c1C	-2.4	1.9	-7.3%	0.0	2.1%	0.0%
CCCNC(=O)C1(CC2CC(c3ccccc3)=NO2)CCN(C(=O)c2ccccc2)CC1 (configuration not stated)	4.8	/	3.2%	-0.6	0.0%	13.3%
CCc1ccc(-c2nc(CN3CCCC(C(=O)NCc4ccc(C)cc4)C3)c(C)o2)cc1 (configuration not stated)	4.1	/	/	0.2	0.5%	/
COc1ccc(OC)c(CN(CCN2CCOCC2)C(=O)Nc2ccccc2)c1	9.5	7.2	5.8%	0.1	1.2%	-3.2%
CC(C)COc1ccc(C(=O)N/N=C/c2ccoc2)cc1	-0.1	-1.7	2.7%	1.1	-3.4%	?
CCc1c(C)n([O-])c2c([n+]1=O)CCC2	-8.4	-1.6	-4.4%	-0.3	0.8%	-32.0%
COc1ccc(S(=O)(=O)CCC(=O)NCCc2ccc(Cl)cc2)cc1	-9.0	-2.6	-6.0%	-0.3	-2.8%	-43.9%
S=C(NCc1ccco1)Nc1ccc(Cl)cc1Cl	-18.2	1.1	-2.1%	-0.7	1.5%	-18.1%
O=C(CSc1nnc(Nc2ccccc2)s1)Nc1cccnc1Cl	7.2	-0.4	-8.0%	0.8	-1.1%	2.2%
CC(C)(C)N(Cc1ccc2c(c1)OCO2)C(=O)/C=C\S(=O)c1ccccc1 (configuration not stated)	31.4	/	14.8%	0.8	-2.1%	21.5%
CCOC(=O)N1CCc2c(sc(NC(=O)C3=COCCO3)c2C(N)=O)C1	-7.0	-0.2	-12.5%	0.9	?	?
COC(=O)c1sccc1NC(=O)c1cc(-c2ccc(C)cc2)nc2ccccc12	1.1	1.4	-31.1%	-0.4	1.1%	-32.9%
COc1cc(C2=NOC(C(=O)NCc3ccc(F)cc3)C2)cc(OC)c1OC (configuration not stated)	-3.2	3.8	16.0%	-0.3	-5.5%	0.4%
COCCNC(=S)N(CCc1c(C)[nH]c2ccc(C)cc12)Cc1ccco1	-20.4	-0.3	-23.9%	0.7	/	-2.4%
O=c1cc(-c2ccccc2)nc2nc(-c3ccccc3)[nH]n12	-8.8	-1.2	-17.1%	1.2	-14.1%	-30.0%
O=C(COc1coc(CN2CCN(c3ccccc3F)CC2)cc1=O)NCC1CCCO1 (configuration not stated)	28.9	/	10.3%	1.7	0.1%	5.8%[15.4 µM]
Cc1nc2ccc(NC(=O)c3sccc3C)cc2s1	52.0	3.5	-3.2%	-0.1	0.2%	-14.8%
CCOC(=O)CN1C(=O)NC(C)(c2ccc(OC(F)F)cc2)C1=O (configuration not stated)	40.6	-0.3	13.1%	2.0	-0.4%	0.9%
O=[N+]([O-])c1ccc(Cl)c(/C=N/NC(=S)Nc2ccccc2)c1	-14.8	3.8	-2.7%	1.2	-1.0%	3.8%
COc1ccc(C2=CC(c3ccccc3Cl)n3nc(-c4ccc(C)cc4)nc3N2)cc1 (configuration not stated)	16.9	/	/	0.4	?	/
Cc1cccc(OCCCC(=O)Nc2ccc(Br)cc2)c1	1.9	4.0	-10.1%	6.0	1.1%	1.3%
CC(=O)c1ccc(NC(=O)c2cc(C)no2)cc1	-13.3	-3.5	4.8%	0.8	/	14.1%
CCC1(CC)Cc2ccccc2C(CC(=O)N2CCOCC2)=N1	8.3	2.1	-20.6%	-0.5	-0.4%	1.8%
N#Cc1cccc(Cn2nnc(-c3ccccc3)n2)c1	5.8	2.1	8.4%	-1.4	-0.5%	-37.0%[inhibitor]
CN(CC1COc2ccccc2O1)C(=O)c1ccc(Cl)c(S(=O)(=O)N2CCCCCC2)c1 (configuration not stated)	15.5	/	5.3%	1.6	0.1%	-28.4%
CCCCn1c(=O)cc(N2CCOCC2)[nH]c1=O	14.4	3.2	8.2%	0.0	-0.4%	?
COc1cccc(NC(=O)C2CCCN(S(=O)(=O)c3ccc(-n4cnnn4)cc3)C2)c1 (configuration not stated)	-2.3	1.5	-11.3%	0.4	-1.5%	3.5%
Cc1cc(NS(=O)(=O)c2ccc(N3C(=O)C4C5C=CC(C5)C4C3=O)cc2)nc(C)n1 (configuration not stated)	5.7	1.9	-6.2%	-0.1	0.9%	2.0%[15.4 µM]
CCOC(=O)Cc1csc(NC(=O)CN2CCN(CC)CC2)n1	-21.7	-10.0	6.3%	0.7	/	-36.7%[inhibitor]
CC(=O)Nc1ccc(NC(=O)C(C)OC(=O)c2ccc(S(=O)(=O)N3CCCCCC3)cc2)cc1 (configuration not stated)	-7.7	/	1.4%	-0.3	/	-4.0%
O=C(CNC(=O)c1ccccc1)NCc1nc2ccccc2[nH]1	-15.2	/	5.7%	0.0	/	3.7%[15.4 µM]
CCOc1cc(Cl)c(S(=O)(=O)NCc2ccccn2)cc1Cl	13.8	1.2	-10.5%	0.1	0.8%	4.4%
CC1(C)Cc2ccccc2C(N/N=C/c2cccc(F)c2)=N1	6.4	4.1	-1.8%	0.3	0.4%	-0.3%
O=C(COC(=O)CNC(=O)c1ccccc1F)Nc1ccc2[nH]c(=O)[nH]c2c1	-9.0	/	4.4%	-0.7	-1.0%	-32.0%
Clc1ccc(CSc2nnc(/C=C/c3ccccc3)o2)c(Cl)c1	13.3	0.3	2.7%	1.7	?	14.8%
CCC(CO)n1c(SCc2cc(=O)oc3cc(C)ccc23)nc2ccccc2c1=O (configuration not stated)	16.7	1.9	17.1%	7.9	-6.9%	-16.7%
COc1cccc(-c2nn(C)c3sc(C(=O)NCc4ccc5c(c4)OCO5)cc23)c1	1.6	4.2	-19.3%	-0.4	4.6%	-10.4%
Cc1occc1-c1nnc(SCC(=O)NCc2ccc3c(c2)OCO3)n1CC(C)C	-0.8	1.8	-3.3%	-0.3	-0.6%	-15.6%
COc1ccc(OC)c(NC(=O)COC(=O)Cc2ccsc2)c1	46.2	/	-0.1%	3.1	-4.7%	-38.4%
COc1cc(C)c(C)cc1S(=O)(=O)Nc1cccc(-c2ccc(N3CCOCC3)nn2)c1	8.2	/	/	-0.7	-1.1%	/
O=C(COC(=O)c1c2c(nc3ccccc13)/C(=C/c1ccco1)CC2)NC1CCCC1	-18.1	25.6	-13.2%	4.6	-4.2%	?
COc1cc(-c2nc(-c3ccccc3)c(-c3ccc(F)cc3)[nH]2)cc2c1OCO2	23.0	1.6	-25.2%	3.7	10µM*	2.2%
Cn1c(SCC(=O)N2CCCCC2)nc2c(c1=O)SCC2	-6.2	/	-1.3%	0.2	-4.1%	22.1%
O=C(/C=C/c1ccco1)N(Cc1ccccc1F)C1CCS(=O)(=O)C1 (configuration not stated)	42.6	5.4	-27.0%	-1.1	0.4%	?
Clc1ccccc1Nc1nnc(-c2ccncc2)s1	5.1	7.2	1.0%	-0.8	-13.8%	-30.1%[inhibitor]
CCCCCCC1/C(=N/O)CCC1C(=O)OC (configuration not stated)	-4.3	-1.5	8.6%	-1.4	-8.3%	-0.8%
COc1cccc(NC(=O)CN2CCN(CC(=O)Nc3ccc(F)cc3)CC2)c1	6.8	1.4	-4.1%	0.2	/	18.0%
Cc1ccc(C)c(NC(=S)N2CCCCCC2)c1	-1.9	-2.0	1.2%	-1.2	2.8%	5.8%
O=C(Nc1ccccc1)Nc1nnc(CSCc2ccccc2Cl)s1	-14.5	1.6	-20.5%	1.9	-1.0%	14.5%
CN(CC1COc2ccccc2O1)C(=O)CSc1ncccn1 (configuration not stated)	1.4	/	6.6%	-0.5	/	10.5%
COC(=O)CCC(=O)N1CCCC(CO)(Cc2ccccc2C)C1 (configuration not stated)	13.1	-2.3	-19.4%	0.4	0.4%	0.3%
COc1ccccc1CC(=O)O/N=C(\N)c1ccccn1	20.7	4.1	-1.2%	-0.8	-0.2%	?
CC(=O)N1c2nc(C(C)C)nn2C2(CCCCC2)[C@@H]2CCCC[C@@H]21	1.4	/	/	-0.3	-0.1%	/
COc1ccc(-c2cc(C(F)(F)F)nc(N3CCOCC3)n2)cc1	8.2	2.3	-8.6%	-0.1	?	-51.3%[inhibitor]
CCc1ccc(Nc2ccc(C(=O)O)cc2[N+](=O)[O-])cc1	-19.3	-0.7	-28.8%	-0.9	-0.3%	8.8%[15.4 µM]
CCN(CC)S(=O)(=O)c1cccc(C(=O)N[C@H](C(=O)Nc2nc3ccc(F)cc3s2)C(C)C)c1	-6.4	0.6	-11.4%	-0.1	-2.0%	-3.6%
CC(C)(C)NC(=O)C1CC(=O)OC1(C)C (configuration not stated)	4.8	-0.9	1.8%	0.0	1.1%	3.0%

Other entries.
SMILES	TRPML1 blocker	Menin MLL FP FL	gsp antagonist	TRPML1 agonist	ClpP mod	gsp agonist
O=C(NCc1ccc(F)cc1)c1cccc(N2CCCS2(=O)=O)c1	-1.0	/	/	0.2	-5.4%	/
CC(C)=CCN1CCN(CCC2=C(C)CCCC2(C)C)CC1CCO (configuration not stated)	-1.7	-0.1	-8.9%	0.7	-0.3%	-27.6%
COc1ccc(NC(=O)C2CCN(S(C)(=O)=O)CC2)c(OC)c1	-4.2	-0.4	10.2%	0.3	-0.1%	-5.1%
O=C(c1cc(-c2cccc(Cl)c2)on1)N1CCc2ccccc2C1	8.5	-3.6	3.1%	1.2	/	-6.7%[15.4 µM]
Cc1cc(-c2nnnn2-c2ccc(F)cc2)no1	-15.0	-2.3	2.5%	-0.1	-0.9%	-11.1%[15.4 µM]
Cc1ccc(S(=O)(=O)N2CC(O)CC2C(=O)OCC(=O)c2ccccc2Cl)cc1C (configuration not stated)	-8.5	5.4	-13.1%	0.2	0.6%	-3.6%
O=S(=O)(c1ccccc1)N1CCC2(CC1)CO2	6.5	2.7	7.9%	-0.4	/	7.9%
CC(CCc1ccccc1)NC(=O)c1ccc(Cl)nc1 (configuration not stated)	13.9	2.1	1.5%	0.2	1.3%	0.4%
Cc1cccc(N(C)C(=O)CCNS(=O)(=O)c2ccc3c(c2)CCN3C(=O)C2CC2)c1	-13.7	/	/	0.6	1.8%	/
CN(CCCNC(=O)CN1C(=O)CC(C)(C)S(=O)(=O)c2ccccc21)C1CCCCC1	12.5	-2.7	10.4%	-0.4	0.0%	20.0%
CSc1cccc(NC(=O)c2ccc3c(c2)c(C)c(C)n3Cc2ccc(F)cc2)c1	52.7	/	/	0.5	7.08µM*	/

Assay outcomes: PubChem BioAssay, National Center for Advancing Translational Sciences (NCATS)
